# High-throughput results deposited in PubChem by National Center for Advancing Translational Sciences (NCATS).
# RE007 growth inh: less growth of the S. pombe RE007 Vpr strain | 0.21% of 360,000 active | S. pombe RE007 Vpr strain, BacTiter-Glo ATP luminescence, 24 h; control for the full effect not named in the record | Potency, µM (top dose mostly 92.2 µM), for inactives: at the highest dose activity change, negative = less growth; active = well fitted falling curve with a large enough effect; inconclusive = small, poorly fitted or top-dose-only effect; inactive = no such curve, though single readings can be large or run the other way;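 note: % is set by controls: 0 for no effect and ±100 for the full control effect; nearly all actives have a fitted effect of over 50% in size; the assay follows cell death caused by Vpr and the record does not say whether a fall means rescue or toxicity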
#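 Fission yeast RE007 carrying one integrated HIV-1 vpr copy, seeded at OD 0.01 in PMG+AL medium with 23 nL pinned compound. Grown 24 h at 30 degrees; viability read by BacTiter-Glo luminescence after 5 min.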
# 2A StopGo: FMDV 2A StopGo reporter, luciferase signal; human cells with a luciferase reporter of 2A StopGo recoding; control for the full effect not named in the record; 1.2% of 410,000 active; Potency, µM (titrated, usually from 57.9 µM), for inactives: top-dose signal change, negative = less light; AID 1159524; active = well fitted falling curve with a large enough effect; inconclusive = small, poorly fitted or top-dose-only effect; inactive = no such curve, though single readings can be large or run the other way; tested in HEK293T cells; note: % is set by controls: 0 for no effect and ±100 for the full control effect; nearly all actives have a fitted effect of over 45% in size; luciferase light after 4 h
# SARS PLP yeast: blocks SARS-CoV papain-like protease in a yeast assay; 0.19% of 330,000 active; Potency, µM (titrated, usually from 32.9 µM), for inactives: top-dose activity, positive = growth rescue; AID 485353; S. cerevisiae expressing SARS-CoV PLpro, growth rescue; control for the full effect not named in the record; active means well fitted rising curve with a large enough effect; inconclusive means small, poorly fitted or top-dose-only effect; inactive means no such curve, though single readings can be large or run the other way; note: 0% is about no effect; nearly all actives have a fitted effect of over 55% in size; growth read by luminescence after 48 h
# MARV entry inh: Marburg virus entry inhibition. Marburg virus pseudotyped entry inhibition, cell reporter; control for the full effect not named in the record; about a third of the inactives were read at about 46 µM. Potency, µM (titrated, usually from 37.8 µM), for the others: at the highest dose activity change, negative = inhibition, hits mostly inhibitors. 1.8% of 300,000 active; active = well fitted inhibition curve with a large enough effect; inconclusive = small, poorly fitted or top-dose-only effect, or effect the other way; inactive = flat fitted curve, though single readings scatter; tested in HEK293 cells; about a fifth of its hits are not listed in these tables; note: % is set by controls: 0 for no effect and ±100 for the full control effect; luciferase read-out
# Lassa entry inh: Lassa virus entry inhibition; Lassa virus pseudotype entry inhibition, cell reporter; control for the full effect not named in the record; Potency, µM (highest dose often 37.9 µM), without a hit: at the highest dose activity change, negative = inhibition, actives largely listed as inhibitors; 1.2% of 300,000 active; active means well fitted inhibition curve with a large enough effect; inconclusive means small, poorly fitted or top-dose-only effect, or effect the other way; inactive means flat fitted curve, though single readings scatter; tested in HEK293 cells; note: % is set by controls: 0 for no effect and ±100 for the full control effect; nearly all actives have a fitted effect of over 50% in size; luciferase read-out
# NS1 function inh: influenza NS1 inhibition; Potency, µM (doses to about 46.1 µM), inactives show top-dose activity, positive = more growth; 0.4% of 270,000 active; S. cerevisiae slowed by influenza A NS1, growth recovery by OD600; active means well fitted rising curve with a large enough effect; inconclusive means small, poorly fitted or top-dose-only effect; inactive means no such curve, though single readings can be large or run the other way; note: nearly all actives have a fitted effect of over 50% in size
#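 Read-out: OD600 growth recovery of NS1-expressing budding yeast. Cells grown overnight at 30C in -URA glucose medium, washed, resuspended and diluted 1:100 in 2% galactose assay medium, pH 6.0. Same strain lacking NS1 served as positive control.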
# Cruzain Triton: blocks cruzain activity in presence of Triton detergent; P25779; Potency, µM, for inactives: max response, negative = inhibition, actives largely listed as inhibitors; purified cruzain, Z-FR-AMC fluorescence, 0.01% Triton; AID 1478; 0.43% of 200,000 active;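 note: plate controls were neutral wells for no effect and buffer without enzyme for full effect; nearly all actives have a fitted effect of over 40% in size; top concentration of the series not given in the record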
# Target sequence (P25779 123-467 limits assumed): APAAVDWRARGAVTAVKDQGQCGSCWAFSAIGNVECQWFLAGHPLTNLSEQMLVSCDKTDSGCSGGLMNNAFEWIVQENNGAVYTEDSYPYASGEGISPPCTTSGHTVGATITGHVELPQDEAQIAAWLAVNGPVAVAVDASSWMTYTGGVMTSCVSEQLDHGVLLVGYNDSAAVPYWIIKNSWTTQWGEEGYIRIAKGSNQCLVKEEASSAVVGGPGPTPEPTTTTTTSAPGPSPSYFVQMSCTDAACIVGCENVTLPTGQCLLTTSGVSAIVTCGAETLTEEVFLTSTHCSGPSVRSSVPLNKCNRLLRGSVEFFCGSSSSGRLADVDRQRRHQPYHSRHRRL
#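 15 min RT preincubation of 1.5 nM cruzain with compound, then 2 uM Z-FR-AMC added; kinetic AMC fluorescence, 60 s delta. Triton X-100 0.01%, pH 5.5.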
# Cruzain noTriton: cruzain (T. cruzi) inhibition without detergent; Potency, µM, for inactives: max response, negative = inhibition, actives largely listed as inhibitors; purified cruzain, Z-FR-AMC fluorescence, no detergent; 2.3% of 200,000 active; P25779;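 note: plate controls were enzyme without inhibitor for no effect and buffer without enzyme for full effect; nearly all actives have a fitted effect of over 40% in size; top concentration of the series not given in the record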
#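 Purified cruzain at 1.5 nM, pre-incubated 15 min with compound at room temperature in 100 mM sodium acetate pH 5.5, 5 mM DTT, 0.00005% Triton X-100. Reaction started with 2 uM Z-FR-AMC; AMC fluorescence increase over 60 s gives rate.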
# Active calls of the source: *; ? = inconclusive; . = not tested or not shown; & = joins results of further samples; [ ] = dose if it differs, or a comment. Unless noted, calls come from the whole dose curve; as a rule, active = well fitted curve in the direction sought with a large enough effect; inconclusive = small, poorly fitted or top-dose-only effect, or another doubt; inactive = no such curve, though single readings can be large; an effect the other way counts as inactive or inconclusive. Potency is the fitted concentration of half-maximal effect.
SMILES,RE007 growth inh,2A StopGo,SARS PLP yeast,MARV entry inh,Lassa entry inh,NS1 function inh,Cruzain Triton,Cruzain noTriton
CCOC(=O)c1[nH]c(COC(=O)CCOc2ccccc2OC)c(C(=O)OCC)c1C,-7.2%[3.69 µM],-17.9%,-7.7%,-25.0%,-12.8%,6.6%,-4.2%,1.4%
CCOC(=O)C1CCCN(CC(=O)c2c[nH]c3ccc(C)cc23)C1 (stereo not given),-5.1%,-19.1%,0.8%,.,.,2.4%,.,.
CCOC(=O)C1=C(C)NC(=O)NC1c1ccc(N2CCC(c3ccccc3)=N2)cc1 (stereo not given),-7.4%,33.0%[activator],1.6%,.,.,-14.2%,.,.
COc1ccc(C(=O)N(Cc2ccco2)Cc2ccco2)cc1,.,-9.1%,.,18.0%[46.1 µM],-28.1%[46.1 µM],.,-1.8%,-8.5%
COC(=O)c1[nH]c(C)c(/C(O)=C2\C(=O)C(=O)N(CCN3CCOCC3)C2c2ccc(C)o2)c1C (stereo not given),-5.2%,-15.8%,0.2%,-9.0%,?,2.1%,.,.
CC1(C)Cc2ccccc2-c2c1c(=O)n(Cc1ccccc1)c1nnnn21,-3.2%,?,8.1%,0.4%[46.1 µM],2.6%,10.6%,-4.5%,-25.3%
COc1ccccc1N1CCN(c2cc(=O)n(-c3ccccc3Cl)c(=O)[nH]2)CC1,-5.6%,-11.6%,8.1%,?,3.7%,3.7%,7.3%,?
CCOC(=O)/C(=C/c1ccc(OC(F)F)cc1)C1=Nn2c(nnc2-c2ccc(Cl)cc2)SC1,13.6%,12.6µM*,.,?,?,.,.,.
CS(=O)(=O)N(Cc1ccc(C(=O)NN=C2CCCCCC2)cc1)c1ccccc1,8.3%,-25.4%,0.6%,?,?,21.2%,-2.0%,-7.3%
Cn1cnc(S(=O)(=O)Nc2cc(-c3ccc(Cl)cc3)nn2C)c1,-5.4%,-17.9%,-2.2%,.,.,-2.4%,.,.
CC(C)(C)C(=O)CSc1nccc(=O)[nH]1,-0.7%,.,11.1%,-0.9%,-14.5%,-2.6%,1.3%,-2.7%
CCC(=O)N1CCc2cc(S(=O)(=O)CCC(=O)O)ccc21,11.3%,-13.7%,-2.4%,-3.7%,6.3%,6.3%,5.2%,-2.9%
CN(C)C1=NP(N(C)C)(N(C)C)=NC(c2ccccc2)=N1,13.8%,-6.9%,7.3%,?,11.8%,7.8%,0.8%,15.6%
CCOc1ccc(S(=O)(=O)Nc2ccc(C(=O)N/N=C/c3c(C)nn(-c4ccccc4)c3N3CCCC3)cc2)cc1,-17.2%,-20.9%,16.8%,-15.8%,-4.9%,23.9%,-4.0%,?
NNc1nnc2c3cc(F)ccc3n(Cc3ccccc3)c2n1,16.0%,5.4%,-1.0%,?,?,-0.6%,.,.
COC(=O)c1ccc(NC(=O)C(=O)N2CCN(C(=S)Nc3ccc(C)cc3)CC2)cc1,3.6%,0.0%,5.3%,-14.1%,1.2%,19.8%,-2.6%,-3.7%
CC(C)Cc1nnc(NS(=O)(=O)c2ccc([N+](=O)[O-])cc2)s1,1.3%,22.3%,-5.0%,2.3%,-0.4%,-10.8%,.,.
O=C(NCCC(=O)N1CCN(S(=O)(=O)c2ccccc2)CC1)c1ccc(Br)cc1,0.4%,-3.5%,3.1%,?,-19.5%[46.1 µM],.,.,.
Cc1nn(S(=O)(=O)c2ccccc2)c(C)c1S(=O)(=O)N1CCOCC1,-6.8%,0.5%,-1.1%,-8.3%[46.1 µM],-13.8%,4.4%,.,.
CC1=CC(C)(C)N(S(=O)(=O)c2ccc(C)cc2)c2cc(C)ccc21,6.0%,.,-29.0%,2.59µM*,?,-103.4%,-2.6%,-14.4%
Cc1cc2c(OCC(O)CN3CCCC3)cccc2[nH]1 (stereo not given),-20.2%,5.1%,-0.2%,-0.6%[14.2 µM],-0.1%,.,.,.
Cc1ccc2c(c1)C(=O)CCCCC(=O)N2,5.0%,-0.3%,1.7%,16.2%[46.1 µM],3.3%[46.1 µM],-1.3%,.,.
CC(NS(=O)(=O)c1ccc(Cl)c(Cl)c1)C(=O)Nc1cccnc1 (stereo not given),6.7%,-17.3%,2.1%,3.4%,2.7%,.,.,.
O=C(CCc1ccccc1)n1nc(-c2ccccc2)nc1NCc1ccco1,-8.8%,27.2%,24.9%,?,?,-7.8%,-8.4%,-19.7%
ON=C1c2ccccc2-c2ccc(F)cc21,-23.2%,5.8%,.,3.5%,13.6%,.,.,.
# Going on with the list:
SMILES,RE007 growth inh,2A StopGo,SARS PLP yeast,MARV entry inh,Lassa entry inh,NS1 function inh,Cruzain Triton,Cruzain noTriton
Cc1cccc(C2c3[nH]c4ccccc4c3CCN2C(=O)c2cc(C(C)C)nc(N)n2)n1 (stereo not given),9.2%,-19.3%,0.0%,.,.,3.4%,.,.
C[C@H](CCC(=O)O)[C@H]1CC[C@H]2[C@@H]3CC[C@@H]4C[C@H](O)CC[C@]4(C)[C@H]3CC[C@]12C,-8.1%,?,-0.6%,.,.,.,-27.1%&-26.7%,-26.8%&-17.7%
CC1CCCCN1CCNC(=O)C1CCN(S(=O)(=O)N2CCCCC2)CC1 (stereo not given),10.6%,.,5.3%,-2.1%,9.7%,-10.0%,2.6%,-9.0%
COc1cc(OC)cc(C(=O)NCCNC(=O)c2ccccn2)c1,3.0%,6.1%,0.9%,-0.4%[46.1 µM],-24.7%[46.1 µM],2.5%,.,.
O=[N+]([O-])c1cccc(NN=Nc2ccccc2)c1,8.3%,23.3%,-0.1%,.,.,8.9%,.,.
COc1ccc(C2=NS(=O)(=O)N(C)C(C(=O)NCc3ccc4c(c3)OCO4)=C2)cc1,5.4%,-15.5%,-7.7%,.,.,6.8%,.,.
CC(=O)c1ccc(NC(=O)CN(C)S(=O)(=O)c2cnc[nH]2)cc1,.,2.8%,.,19.4%[46.1 µM],16.5%[46.1 µM],.,-1.4%,7.2%
CC(=O)c1ccccc1NS(=O)(=O)c1c(C)nn(-c2ccccc2)c1C,3.6%,-24.2%,-0.8%,?,-0.9%,-27.9%,-1.8%,-9.4%
CCOCCCNC(=S)NCCNc1nc2c(C)cccc2cc1C#N,-10.2%,.,-0.5%,?,2.3%,17.0%,-12.0%,?
Cc1ccccc1N1CCN(S(=O)(=O)c2nnc(NC(=O)c3ccco3)s2)CC1,-0.9%,15.7%,-10.9%,.,.,-17.1%,.,.
O=C(Nc1cc(S(=O)(=O)N2CCOCC2)ccc1N1CCCC1)c1ccc(Cl)cc1,2.8%,-29.8%,-2.5%,-4.9%,-13.5%,.,.,.
O=C(Nc1ccc(F)c(Cl)c1)N1CCN(C(=O)c2nsc3ccccc23)CC1,.,12.5%,.,16.9%[46.1 µM],8.6%[46.1 µM],.,-8.2%,4.3%
Nc1nc(N2CCN(C(=O)c3ccco3)CC2)nc2ccc(Br)cc12,-7.3%,-14.6%,0.5%,?,?,.,.,.
COP(=O)(OC)C(NC(=O)c1ccc(C)cc1)C(Cl)(Cl)Cl (stereo not given),0.9%,31.9%[activator],0.3%,-3.8%[46.1 µM],-29.0%,-4.2%,.,.
COc1ccc(CCN(C)Cc2c(O)ccc3cc(Br)ccc23)cc1OC,-17.9%,?,1.0%,?,3.7%[46.1 µM],7.6%,.,.
Cc1cccc(NC(=O)CSc2nc3ccc(NC(=O)c4ccccc4)cc3s2)c1,.,?,.,10.2%[46.1 µM],15.3%[46.1 µM],.,-1.7%,-27.2%
CCCCN1C[C@H](Cc2ccccc2)[C@@H](CC(=O)NCc2ccc(OC)cc2)C1=O,7.1%,5.6%,-5.3%,.,.,-12.3%,.,.
CC(C)CN(C1CCS(=O)(=O)C1)S(=O)(=O)c1ccc2ccccc2c1 (stereo not given),-0.8%,-10.4%,-0.9%,-3.5%,?,.,.,.
Cn1c(SCC(=O)c2ccccc2)ncc(C(=O)Nc2ccccc2)c1=O,-10.9%,?,1.3%,?,12.5%,.,.,.
CCC(CC)NC(=O)CN1CCN(S(=O)(=O)c2cccs2)CC1,3.4%,-13.4%,2.9%,2.4%,-0.5%,.,.,.
O=C(COC(=O)c1cccc(Cl)c1)Nc1cc(Cl)ccc1Oc1ccccc1,9.2%,-16.8%,10.4%,-1.4%,-13.6%,13.9%,-5.5%,-5.1%
Clc1cccc(-c2ccc(C=Nc3ccc(N4CCOCC4)cc3)o2)c1,-13.7%,12.3%,-23.4%,19.2%,7.3%,-5.2%,-13.0%,0.9%
CCc1ccc(/C=C2/SC(=S)N(CC(=O)Nc3nc4ccccc4s3)C2=O)cc1,1.6%,5.7%,-3.7%,2.1%,-0.7%,9.8%,-7.8%,3.16µM*

# Some of the entries above, reformatted:
# Under each structure – RE007 growth inh, 2A StopGo, SARS PLP yeast, MARV entry inh, Lassa entry inh, NS1 function inh, Cruzain Triton, Cruzain noTriton
- CCOC(=O)C1=C(C)NC(=O)NC1c1ccc(N2CCC(c3ccccc3)=N2)cc1 (stereo not given)
    -7.4%, 33.0%[activator], 1.6%, ., ., -14.2%, ., .
- CCOCCCNC(=S)NCCNc1nc2c(C)cccc2cc1C#N
    -10.2%, ., -0.5%, ?, 2.3%, 17.0%, -12.0%, ?
- Cc1ccccc1N1CCN(S(=O)(=O)c2nnc(NC(=O)c3ccco3)s2)CC1
    -0.9%, 15.7%, -10.9%, ., ., -17.1%, ., .
- CCCCN1C[C@H](Cc2ccccc2)[C@@H](CC(=O)NCc2ccc(OC)cc2)C1=O
    7.1%, 5.6%, -5.3%, ., ., -12.3%, ., .

# Profiles, looked up by structure. Screens in order: RE007 growth inh, 2A StopGo, SARS PLP yeast, MARV entry inh, Lassa entry inh, NS1 function inh, Cruzain Triton, Cruzain noTriton
# Listed for CCOC(=O)C1CCCN(CC(=O)c2c[nH]c3ccc(C)cc23)C1 (stereo not given) = -5.1%, -19.1%, 0.8%, ., ., 2.4%, ., .
# Listed for CCc1ccc(/C=C2/SC(=S)N(CC(=O)Nc3nc4ccccc4s3)C2=O)cc1 = 1.6%, 5.7%, -3.7%, 2.1%, -0.7%, 9.8%, -7.8%, 3.16µM*
# Listed for COc1ccc(C(=O)N(Cc2ccco2)Cc2ccco2)cc1 = ., -9.1%, ., 18.0%[46.1 µM], -28.1%[46.1 µM], ., -1.8%, -8.5%
